NPYLR7 ag: activates Aedes aegypti NPYLR7 receptor. HEK293T NPYLR7/Galpha15, GCaMP6s calcium fluorescence. AID 1259423. activation, % at 10 µM. hit rate 0.15% among 270,000; in the data active means activation above about 40%;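 further: 0% = vehicle and 100% = reference agonist at the receptor; some compounds past the cut are filed as inactive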
NPYLR7 ag max-min: also measured in NPYLR7 ag; calls as there; activation, %; measured here: Max-Min RFU normalised activation; some inactives read as strong as hits;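 span of the calcium signal over five minutes; 0% = vehicle and 100% = native peptide agonist; compound fluorescence can raise it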
An asterisk follows results filed as active; & = joins results of further samples.

`O=C1c2ccccc2C(=O)N1CCN1CCN(c2cccc(Cl)c2)CC1` gave NPYLR7 ag -1.0 and NPYLR7 ag max-min 5.7.
Screening CN(C)c1cccc(Nc2cc(-c3ccc(-c4ccccc4)cc3)ncn2)c1 returned NPYLR7 ag 1.3 and NPYLR7 ag max-min -0.4.
For CNC(=O)c1ccc(CN2CCCC(CCc3ccccc3C)C2)cc1 (stereo not given) the results were NPYLR7 ag -6.1 and NPYLR7 ag max-min -12.6.
Screening O=C1c2ccccc2C(=O)N1c1ccccc1S(=O)C(F)(F)F (stereo not given) returned NPYLR7 ag 4.6 and NPYLR7 ag max-min 1.8.
For Cc1ccc(S(=O)(=O)N2CCN(c3ccc4c(c3)OCO4)C(=O)C2C)cc1 (stereo not given) the results were NPYLR7 ag 12.3 and NPYLR7 ag max-min 7.1.
Screening Cc1ccccc1CSc1nnc(CNC(=O)Nc2ccc(Cl)cc2Cl)n1-c1cc(Cl)ccc1Cl returned NPYLR7 ag -2.0 and NPYLR7 ag max-min 2.6.
CC(=O)Nc1c2c(nn1-c1nc3ccccc3s1)CCC2 was read as NPYLR7 ag 7.1 and NPYLR7 ag max-min 4.8.
For O=C(CC1C(=O)NCCN1C/C=C/c1ccccc1)NCCc1cnccn1 (stereo not given) the results were NPYLR7 ag 1.6 and NPYLR7 ag max-min -0.2.
Screening O=C(CC1C(=O)NCCN1CCc1ccccc1)NC1(CO)CCCC1 (stereo not given) returned NPYLR7 ag -3.7 and NPYLR7 ag max-min -6.0.
`CC(C)c1nnsc1C(=O)N1CCC2(CC1)C(=O)NCCN2C` gave NPYLR7 ag 19.1 and NPYLR7 ag max-min 15.1.
For Cc1cccc(C(C2Sc3nc(C)nn3C2=O)N2CCC(O)CC2)c1 (stereo not given) the results were NPYLR7 ag -4.3 and NPYLR7 ag max-min -10.4.
Screening CCCc1cc(N2CC(C)CC(C)C2)n2nc3nc(C)cc(C)c3c2n1 (stereo not given) returned NPYLR7 ag -1.2 and NPYLR7 ag max-min 39.5.
For C=C(C)Cn1c(=O)c2c(nc3n(-c4ccccc4N)c(C)c(C)n23)n(C)c1=O the results were NPYLR7 ag 0.9 and NPYLR7 ag max-min -1.1.
O=C(Nc1ccc2c(c1)OCO2)C1CCCN(c2ccc(-c3ccco3)nn2)C1 (stereo not given) was read as NPYLR7 ag -9.7 and NPYLR7 ag max-min -12.3.
For Cn1nnc(NC(=O)c2ccc(-c3ccccc3)cc2)n1 the results were NPYLR7 ag 10.0 and NPYLR7 ag max-min 3.1.

The final four entries of the section above open the next one.
Screening CCCc1cc(N2CC(C)CC(C)C2)n2nc3nc(C)cc(C)c3c2n1 (stereo not given) returned NPYLR7 ag -1.2 and NPYLR7 ag max-min 39.5.
For C=C(C)Cn1c(=O)c2c(nc3n(-c4ccccc4N)c(C)c(C)n23)n(C)c1=O the results were NPYLR7 ag 0.9 and NPYLR7 ag max-min -1.1.
O=C(Nc1ccc2c(c1)OCO2)C1CCCN(c2ccc(-c3ccco3)nn2)C1 (stereo not given) was read as NPYLR7 ag -9.7 and NPYLR7 ag max-min -12.3.
For Cn1nnc(NC(=O)c2ccc(-c3ccccc3)cc2)n1 the results were NPYLR7 ag 10.0 and NPYLR7 ag max-min 3.1.
Screening C1CCC(c2nc3c(c(N4CCOC5(CNCCOC5)C4)n2)CNC3)C1 (stereo not given) returned NPYLR7 ag 30.3 and NPYLR7 ag max-min 17.0.
`CCC(=O)Nc1cc2nn(-c3ccc(C)cc3)nc2cc1Cl` gave NPYLR7 ag -0.3 and NPYLR7 ag max-min 0.1.
For O=C(CC1(C(=O)Nc2cccc(C(F)(F)F)c2)CCCC1)NC1CC1 the results were NPYLR7 ag 10.8 and NPYLR7 ag max-min 5.9.
O=C(NC1CCS(=O)(=O)C1)OCCOC(=O)NC1CCS(=O)(=O)C1 (stereo not given) was read as NPYLR7 ag 18.5 and NPYLR7 ag max-min 9.3.
O=C(CSc1ncnc2sc3c(c12)CCC3)Nc1ccccc1Cl was read as NPYLR7 ag -8.6 and NPYLR7 ag max-min -12.5.
O=C(CCOc1ccccc1)N1CCCC(Nc2ccccc2)C1 (stereo not given) was read as NPYLR7 ag 3.2 and NPYLR7 ag max-min -2.3.
For Cc1nc2sc(C)c(C)n2c(=O)c1NC(=O)CC(c1ccccc1)c1ccccc1 the results were NPYLR7 ag 10.0 and NPYLR7 ag max-min 0.4.
`NC(=O)c1cc(Cl)nnc1N1CCCSCC1` gave NPYLR7 ag 14.3 and NPYLR7 ag max-min 11.8.
Screening c1ccc(-c2nc3c(c(N4CCN(Cc5cnn(-c6ccccc6)c5)CC4)n2)CCC3)cc1 returned NPYLR7 ag -0.7&8.6 and NPYLR7 ag max-min -1.7&2.0.
For Cc1ccc2c(CC(=O)NCc3csc(C)n3)cc(=O)oc2c1 the results were NPYLR7 ag 5.5 and NPYLR7 ag max-min 3.5.
`CCCCCC(=O)NC(N1CCCCC1)C(Cl)(Cl)Cl` (stereo not given) gave NPYLR7 ag -2.1 and NPYLR7 ag max-min -12.7.
O=C1C(C(c2ccc(F)cc2)N2CCC3(CC2)OCCO3)Sc2nc(-c3ccco3)nn21 (stereo not given) was read as NPYLR7 ag 5.0 and NPYLR7 ag max-min 3.2.
Cc1oc(-c2ccccc2)nc1-c1c(-c2ccccc2)ncn1C1CCNC1 (stereo not given) was read as NPYLR7 ag 1.5 and NPYLR7 ag max-min 0.0.
For O=C1CCCCC1=CNc1ccc(Br)cn1 the results were NPYLR7 ag 2.7 and NPYLR7 ag max-min 6.2.
For CC(Sc1n[nH]c(C(C)C)n1)C(=O)NC(C)c1ccc(Cl)cc1Cl (stereo not given) the results were NPYLR7 ag -0.9 and NPYLR7 ag max-min 0.4.
`CC(C)c1nn(C)c2c1C(c1nc(-c3ccc(Cl)cc3)no1)CC(=O)N2` (stereo not given) gave NPYLR7 ag 8.1 and NPYLR7 ag max-min 2.8.
Screening CCOC(=O)Cc1csc(N=Cc2nc(-c3ccc(Cl)cc3)oc2O)n1 returned NPYLR7 ag -9.9 and NPYLR7 ag max-min -14.4.
`N#CCSc1ccc(Cl)cc1` gave NPYLR7 ag -1.1 and NPYLR7 ag max-min 4.4.
For O=C(c1cc2ccccc2[nH]1)N1CCC(C(=O)N2CCc3ccccc3C2)CC1 the results were NPYLR7 ag 10.7 and NPYLR7 ag max-min 2.5.
COc1cccc(C(N)=O)c1OCc1nc2ccccc2c(C)c1Cl was read as NPYLR7 ag -2.8 and NPYLR7 ag max-min -5.1.
For CCOC(=O)C1=C(C)N(C)C(=O)NC1c1ccccc1C(F)(F)F (stereo not given) the results were NPYLR7 ag -4.5 and NPYLR7 ag max-min -9.7.
O=S(=O)(NCCc1csc2nc(-c3cccs3)nn12)c1ccccc1Cl was read as NPYLR7 ag -0.2 and NPYLR7 ag max-min -1.1.
Screening COc1cc2c(cc1CNC1CCN(Cc3ccccc3)C1)OC(C)C2 (stereo not given) returned NPYLR7 ag 0.6 and NPYLR7 ag max-min -9.9.
`O=C(CC1CCc2ccccc21)NCc1cnn2ccccc12` (stereo not given) gave NPYLR7 ag -4.7 and NPYLR7 ag max-min -7.6.
Screening CC1CCCCC1NS(=O)(=O)c1ccc(F)cc1F (stereo not given) returned NPYLR7 ag 6.3 and NPYLR7 ag max-min 3.3.
For O=C(C1=C(O)C(=O)N(CCN2CCOCC2)C1c1ccccc1F)c1cccs1 (stereo not given) the results were NPYLR7 ag 14.2 and NPYLR7 ag max-min 18.7.
`O=C(OCc1cc(-c2cccs2)on1)c1cc2ccccc2oc1=O` gave NPYLR7 ag 0.1 and NPYLR7 ag max-min -2.6.
For N#Cc1ccc(CSC2=Nc3ccccc3CS2)cc1 the results were NPYLR7 ag -0.4 and NPYLR7 ag max-min -3.6.
Screening O=c1cc(-c2ccccc2)[nH]o1 returned NPYLR7 ag -3.6 and NPYLR7 ag max-min -4.6.
O=C(CCN(CCc1ccccc1)c1nc(-c2ccccc2Cl)nc2cc(Cl)ccc12)NCc1cccc(C(F)(F)F)c1 was read as NPYLR7 ag -4.7 and NPYLR7 ag max-min -3.3.

2 neighbouring compounds already listed, quoted:
Screening CC1CCCCC1NS(=O)(=O)c1ccc(F)cc1F (stereo not given) returned NPYLR7 ag 6.3 and NPYLR7 ag max-min 3.3.
For O=C(C1=C(O)C(=O)N(CCN2CCOCC2)C1c1ccccc1F)c1cccs1 (stereo not given) the results were NPYLR7 ag 14.2 and NPYLR7 ag max-min 18.7.

(continued)
COc1ccc2c(c1)C1(SCCN1C(=O)C1CCCC1)C(=O)N2Cc1ccc(F)c(F)c1 (stereo not given) was read as NPYLR7 ag 10.1 and NPYLR7 ag max-min 7.9.
For O=C1CCCc2cc(SC(F)F)ccc21 the results were NPYLR7 ag 5.1 and NPYLR7 ag max-min 3.1.
`C[N+]([O-])=Cc1ccc([N+](=O)[O-])cc1` gave NPYLR7 ag -4.0 and NPYLR7 ag max-min -4.3.
For O=C(Nc1ccc(Cc2ccncc2)cc1)c1cc2ccccc2oc1=O the results were NPYLR7 ag -8.7 and NPYLR7 ag max-min -12.4.
Screening Cc1cc2ccccc2n1CCC(=O)N(Cc1ccccn1)CC1CCCO1 (stereo not given) returned NPYLR7 ag 10.6 and NPYLR7 ag max-min 1.9.
`COCCN(Cc1ccco1)S(=O)(=O)Cc1cccc(C)c1` gave NPYLR7 ag 6.3 and NPYLR7 ag max-min 6.6.
For CCCc1c(C)nn(-c2ccc(C(=O)Nc3cccc(C(F)(F)F)c3)cc2)c1C the results were NPYLR7 ag -8.2 and NPYLR7 ag max-min -10.3.
CCCC(=O)Nc1c(-c2ccccc2)c(=O)c(C)nn1-c1ccccc1 was read as NPYLR7 ag 4.7 and NPYLR7 ag max-min 0.9.
`CC(NC(=O)CSc1nnc(-c2ccco2)n1C)c1cccs1` (stereo not given) gave NPYLR7 ag 16.6 and NPYLR7 ag max-min 11.5.
For O=C(COC1CCCCC1)Nc1ccc(-c2nccs2)cc1 the results were NPYLR7 ag -19.4 and NPYLR7 ag max-min -20.5.
Screening CNC(=O)c1ccc(N(C)C)c2ccccc12 returned NPYLR7 ag 1.6 and NPYLR7 ag max-min 0.7.
Screening COc1ccc(NC(=O)Cn2c(C)cc(C)c(C#N)c2=O)c(OC)c1 returned NPYLR7 ag -3.9 and NPYLR7 ag max-min -12.5.
Screening COc1ccc(-c2nc(Cl)c3c4c(sc3n2)CC(C)CC4)cc1 (stereo not given) returned NPYLR7 ag 1.1 and NPYLR7 ag max-min 4.8.
O=C(c1csc(-c2ccc(C(F)(F)F)cc2)n1)N(Cc1ccco1)Cc1cc2c(cc1Cl)OCO2 was read as NPYLR7 ag -8.2 and NPYLR7 ag max-min -13.0.
COC(=O)CC(=O)N1CCN(C(C(=O)Nc2ccc(OC)cc2)C2CCCC2)CC1 (stereo not given) was read as NPYLR7 ag -1.9 and NPYLR7 ag max-min 1.4.
`CCC(C(=O)OC)n1cnc2c(nnn2-c2ccc(F)cc2)c1=O` (stereo not given) gave NPYLR7 ag 1.3 and NPYLR7 ag max-min 5.7.
For CN(C)c1ccc(C2CC(c3ccccc3)=NN2c2ccccc2)cc1 (stereo not given) the results were NPYLR7 ag 1.6 and NPYLR7 ag max-min -2.2.
COc1ccccc1CCN1CCC(CN(C)C(=O)CC2NC(=O)NC2=O)CC1 (stereo not given) was read as NPYLR7 ag -1.4 and NPYLR7 ag max-min -4.2.
For O=C(c1ccco1)N1CCN(C(=S)NCCCN2CCOCC2)CC1 the results were NPYLR7 ag 15.7 and NPYLR7 ag max-min 7.7.
Cc1ccc(SCC(=O)NC(=O)NC2CCCC2)cc1C was read as NPYLR7 ag 2.7 and NPYLR7 ag max-min 1.3.
For Oc1ccc(-c2ncc(Cl)cn2)cc1 the results were NPYLR7 ag 0.1 and NPYLR7 ag max-min 4.7.
Nc1nn(-c2ncccn2)cc1Br was read as NPYLR7 ag 3.3 and NPYLR7 ag max-min 2.3.
For CCOC(=O)c1cnn(C)c1NC(=O)Cn1nc(C)c([N+](=O)[O-])c1C the results were NPYLR7 ag -2.9 and NPYLR7 ag max-min -9.0.
Screening CCc1nc(-n2ccc3c(cnc4c(-c5ccccc5)c(CC)nn43)c2=O)n[nH]1 returned NPYLR7 ag -1.7 and NPYLR7 ag max-min 2.6.
`CC1=NC2=C(C(=O)CC(C)(C)C2)C(c2cccs2)C1C(=O)OC1CCCCC1` (stereo not given) gave NPYLR7 ag 4.1 and NPYLR7 ag max-min -0.6.
COC(=O)C1=C(C)N=c2s/c(=C/c3cccs3)c(=O)n2C1c1ccc(OC)cc1 (stereo not given) was read as NPYLR7 ag -2.8 and NPYLR7 ag max-min -10.4.
`Cc1ccc(N(CC(=O)NCc2nnc3n2CCC3)S(C)(=O)=O)cc1` gave NPYLR7 ag 6.7 and NPYLR7 ag max-min 6.3.
For COc1ccc(-c2cc(C(=O)NCCN3CCOCC3)c(C)n2-c2ccccc2F)cc1 the results were NPYLR7 ag -9.8 and NPYLR7 ag max-min -12.2.
CCOC(=O)N1CCN(C(c2ccc(C(C)C)cc2)C2Sc3nc(C)nn3C2=O)CC1 (stereo not given) was read as NPYLR7 ag 2.0 and NPYLR7 ag max-min -3.7.
Screening O=C(NCc1ccncc1)c1coc(CN(Cc2cccc(C(F)(F)F)c2)Cc2cccc(C(F)(F)F)c2)n1 returned NPYLR7 ag 11.5 and NPYLR7 ag max-min 25.3.
For CC(NC(=O)c1cc(NC(=O)C(c2ccccc2)c2ccccc2)ccc1N1CCCC1)c1ccccc1 (stereo not given) the results were NPYLR7 ag -14.5 and NPYLR7 ag max-min 0.9.
Screening CSC1=NC(=Cc2ccc3c(c2)OCO3)C(=O)N1c1ccc(C)cc1 returned NPYLR7 ag -0.8 and NPYLR7 ag max-min 0.3.
Oc1cccc2ccc(CN3CCCC(OCc4cccnc4)C3)nc12 (stereo not given) was read as NPYLR7 ag 0.5 and NPYLR7 ag max-min 5.6.
Screening CCC(C)N(Cc1ccc(OC)c(OS(=O)(=O)CC)c1)C(=O)C(C)C (stereo not given) returned NPYLR7 ag 9.1 and NPYLR7 ag max-min 8.4.
`CCCCOc1ccc(C(=O)Nc2cccnc2)cc1OC` gave NPYLR7 ag -0.1 and NPYLR7 ag max-min -2.7.

Only part of the results is shown (hit frequency here may not be typical).
